# MARV entry inh: qHTS for inhibitors of binding or entry into cells for Marburg Virus; Marburg virus pseudotyped entry inhibition, cell reporter; control for the full effect not named in the record; about a third of the inactives were read at about 46 µM; Potency, µM (top dose mostly 37.8 µM), for inactives: at the highest dose activity change, negative = inhibition, actives largely listed as inhibitors; 1.8% of 300,000 active; active = well fitted inhibition curve with a large enough effect; inconclusive = small, poorly fitted or top-dose-only effect, or effect the other way; inactive = flat fitted curve, though single readings scatter; tested in HEK293 cells; about a fifth of its hits are not listed in these tables; also: % is scaled to controls: 0 for no effect and ±100 for the full control effect; luciferase read-out
# NS1 function inh: qHTS Assay for Inhibitors of Influenza NS1 Protein Function. Potency, µM (titrated, usually from 46.1 µM), for inactives: top-dose activity, positive = more growth. AID 2326, 2010. 0.4% of 270,000 active. S. cerevisiae slowed by influenza A NS1, growth recovery by OD600; also: actives are rising curves; nearly all actives have a fitted effect of over 50% in size
#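 OD600 was taken as the measure of yeast growth restored by compound in an NS1-expressing S. cerevisiae strain. Cells had been washed out of glucose medium and diluted 1:100 into galactose -URA medium, pH 6.0.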
# RE007 growth inh: qHTS Assay for Inhibitors of the HIV-1 protein Vpr | S. pombe RE007 Vpr strain, BacTiter-Glo ATP luminescence, 24 h; control for the full effect not named in the record | Potency, µM (top dose mostly 92.2 µM), inactives show top-dose activity change, negative = less growth | 0.21% of 360,000 active | AID 651644, 2012; active = well fitted falling curve with a large enough effect; inconclusive = small, poorly fitted or top-dose-only effect; inactive = no such curve, though single readings can be large or run the other way;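 also: % is scaled to controls: 0 for no effect and ±100 for the full control effect; nearly all actives have a fitted effect of over 50% in size; the assay follows cell death caused by Vpr and the record does not say whether a fall means rescue or toxicity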
#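 Fission yeast strain RE007, carrying one chromosomally integrated HIV-1 vpr copy, was seeded at OD 0.01 in PMG+AL medium with 23 nL pinned compound. After 24 h at 30 °C and 99% humidity, viability was read by BacTiter-Glo luminescence.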
# Cruzain inh noDet: qHTS Assay for Promiscuous and Specific Inhibitors of Cruzain (without detergent). Cruzipain (Trypanosoma cruzi), P25779. purified cruzain, Z-FR-AMC fluorescence, no detergent. Potency, µM, for the others: max response, negative = inhibition, most hits filed as inhibitors. 2.3% of 200,000 active. AID 1476, 2009; active = well fitted curve in the direction sought with a large enough effect; inconclusive = small, poorly fitted or top-dose-only effect, or another doubt; inactive = no such curve, though single readings can be large; an effect the other way counts as inactive or inconclusive;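 also: plate controls were enzyme without inhibitor for no effect and buffer without enzyme for full effect; nearly all actives have a fitted effect of over 40% in size; top concentration of the series not given in the record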
# Target sequence (P25779 123-467 limits assumed): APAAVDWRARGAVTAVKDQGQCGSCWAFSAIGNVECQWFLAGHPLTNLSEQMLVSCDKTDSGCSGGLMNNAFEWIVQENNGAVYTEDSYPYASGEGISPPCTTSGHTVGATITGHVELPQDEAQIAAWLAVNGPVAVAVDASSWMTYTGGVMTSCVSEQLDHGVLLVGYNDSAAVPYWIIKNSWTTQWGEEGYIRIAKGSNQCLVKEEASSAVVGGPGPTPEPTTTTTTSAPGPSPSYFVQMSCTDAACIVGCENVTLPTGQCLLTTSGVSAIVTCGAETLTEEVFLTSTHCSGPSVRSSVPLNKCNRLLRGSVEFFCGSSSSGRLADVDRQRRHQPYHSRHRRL
#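 Detergent-free condition (0.00005% Triton X-100) in acetate buffer pH 5.5 with DTT. 1.5 nM enzyme and compound were pre-mixed 15 min, then 2 uM Z-FR-AMC substrate added; reaction progress from fluorescence change between first and third reads (60 s).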
# Cruzain Triton: qHTS Assay for Promiscuous and Specific Inhibitors of Cruzain (with detergent); Cruzipain (Trypanosoma cruzi), P25779; purified cruzain, Z-FR-AMC fluorescence, 0.01% Triton; Potency, µM, inactives show max response, negative = inhibition, usual class: inhibitors; 0.43% of 200,000 active; AID 1478, 2009; active = well fitted curve in the direction sought with a large enough effect; inconclusive = small, poorly fitted or top-dose-only effect, or another doubt; inactive = no such curve, though single readings can be large; an effect the other way counts as inactive or inconclusive;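 also: plate controls were neutral wells for no effect and buffer without enzyme for full effect; nearly all actives have a fitted effect of over 40% in size; top concentration of the series not given in the record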
#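 Cysteine protease activity tested under reducing, mildly acidic conditions (100 mM sodium acetate pH 5.5, 5 mM DTT) plus 0.01% Triton X-100. Cruzain 1.5 nM; substrate Z-FR-AMC 2 uM; 15 min compound preincubation at room temperature.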
# SARS PLpro yeast: qHTS of Yeast-based Assay for SARS-CoV PLP | 0.19% of 330,000 active | S. cerevisiae expressing SARS-CoV PLpro, growth rescue; control for the full effect not named in the record | Potency, µM (series often up to 32.9 µM), for inactives: top-dose activity, positive = growth rescue; also: 0% is about no effect; nearly all actives have a fitted effect of over 55% in size; growth read by luminescence after 48 h
# StopGo reporter: High Throughput Screening for Foot and Mouth Disease Virus Antivirals; human cells with a luciferase reporter of 2A StopGo recoding; control for the full effect not named in the record; Potency, µM (series often up to 57.9 µM), for the others: at the highest dose signal change, negative = less light; 1.2% of 410,000 active; AID 1159524, 2015; active = well fitted falling curve with a large enough effect; inconclusive = small, poorly fitted or top-dose-only effect; inactive = no such curve, though single readings can be large or run the other way; tested in HEK293T cells; also: % is scaled to controls: 0 for no effect and ±100 for the full control effect; nearly all actives have a fitted effect of over 45% in size; luciferase light after 4 h
# Lassa entry inh: qHTS for Inhibitors of binding or entry into cells for Lassa Virus; Lassa virus pseudotype entry inhibition, cell reporter; control for the full effect not named in the record; Potency, µM (top dose mostly 37.9 µM), for the others: at the highest dose activity change, negative = inhibition, actives largely listed as inhibitors; 1.2% of 300,000 active; active means well fitted inhibition curve with a large enough effect; inconclusive means small, poorly fitted or top-dose-only effect, or effect the other way; inactive means flat fitted curve, though single readings scatter; tested in HEK293 cells; also: % is scaled to controls: 0 for no effect and ±100 for the full control effect; nearly all actives have a fitted effect of over 50% in size; luciferase read-out
# * marks the source's active call; other numbers are inactive results; u = inconclusive; x = no result given; & = joins results of further samples; [ ] = remark or other dose. Unless noted, calls follow the shape of the dose curve; as a rule, active means well fitted rising curve with a large enough effect; inconclusive means small, poorly fitted or top-dose-only effect; inactive means no such curve, though single readings can be large or run the other way. Potency is read from the fitted curve at half-maximal effect. Compounds were not picked by outcome. Share with any hit: about 4.7%.
# Under each structure – MARV entry inh	NS1 function inh	RE007 growth inh	Cruzain inh noDet	Cruzain Triton	SARS PLpro yeast	StopGo reporter	Lassa entry inh
CN(Cc1cccnc1)C(=O)c1ccc(Cl)c(NS(=O)(=O)c2ccc(F)cc2)c1
    u	x	4%	x	x	4%	64%[activator]	7%
O=C1C(=O)c2ccccc2C([O-])=C1[n+]1ccccc1
    x	2%	7%	x	x	0%	22µM*	x
Cc1cc(C)cc(NS(=O)(=O)c2ccc3[nH]c(=O)[nH]c3c2)c1
    1%	u	-7%	-1%	1.5%	4%	42%	6%
CC(C)CNC(=O)c1cc(-c2ccco2)on1
    u	-13%	5%	12%	0.6%	1%	54%[activator]	u
CS(=O)(=O)N1CCN(c2ccc(NC(=O)C(c3ccccc3)c3ccccc3)cc2)CC1
    18%	14%	4%	182%	0.2%	2%	-11%	18%
COC(=O)Cn1cc(C(=O)OC)cc(Br)c1=O
    8%	1%	-14%	6%	0.2%	-2%	-5%	6%
O=C1NC(=S)SC1=Cc1cccs1
    12%[46.1 µM]	x	u	x	x	x	-12%	4%[46.1 µM]
CCn1cc(C(=O)NCc2ccc3c(c2)OCO3)c(=O)c2cc(S(=O)(=O)N3CCOCC3)ccc21
    5%	5%	0%[3.69 µM]	u	-4.3%	7%	0%	-18%
CCOc1cc(C2NC(=O)N(C)C(C)=C2C(=O)OC)cc(Br)c1O (stereo not drawn)
    -15%&-15%[46.1 µM]	-8%	-10%	-11%	14%	-2%	1%	4%
O=P(O)(c1ccccc1)c1ccccc1O
    1%&1%[46.1 µM]	2%	-11%	3%	2.0%	4%	5%	8%
O=C(Nc1nnc(-c2ccc(Cl)s2)o1)C1CC1
    7%[46.1 µM]	x	-17%	x	x	0%	14%	-4%
COc1ccc(/C=C2\SC(=O)N(CCn3cnnn3)C2=O)cc1
    -28%[46.1 µM]	4%	15%	x	x	2%	71%[activator]	u
O=C(CCc1cccc(Cl)c1)N1CCCC(Nc2ccccc2)C1 (stereo not drawn)
    x	-29%	-5%	x	x	-5%	-11%	x
COc1cccc(CNC(=O)c2nnn(CC(=O)Nc3cccc(C)c3)c2N)c1
    x	1%	-12%	x	x	3%	-23%	x
Fc1ccc(F)c(NC(=S)NCCc2ccccc2)c1
    u	x	-5%	x	x	2%	19%	u
CC1=NN(C(=O)CSCc2ccccc2)C(O)(c2ccc(F)cc2)C1 (stereo not drawn)
    -16%[46.1 µM]	3%	-2%	x	x	-1%	-17%	2%
N/C(=N\OC(=O)CCCOc1ccccc1)c1ccncc1
    1%[46.1 µM]	x	6%	x	x	-1%	-2%	-8%[46.1 µM]
Cc1ccccc1Nc1c(-c2cc(Br)ccc2F)nc2ccccn12
    -5%[46.1 µM]	x	x	-5%	-0.7%	x	-20%	-1%[46.1 µM]
COc1ccc(S(=O)(=O)NC2(C(F)(F)F)NC(=O)N(CCc3ccc(OC)c(OC)c3)C2=O)cc1 (stereo not drawn)
    -4%&3%[46.1 µM]	2%	-10%	-14%	-0.6%	0%	2%&-8%	u
O=C(Nc1ccccc1Sc1ccccc1)c1ccccc1F
    3%	x	-3%	x	x	x	8%	u
O=C(/C=C/c1cccnc1)c1cc(F)ccc1O
    x	1%	u	x	x	0%	-27%	x
CCc1cc2c(=O)c(-c3nc(C)cs3)c(CCCC(=O)O)oc2cc1O
    -12%[46.1 µM]	-5%	-11%	x	x	0%	0%	12%[46.1 µM]
CCc1c(C)sc(NC(=S)N2CCN(S(C)(=O)=O)CC2)c1C(=O)OC
    x	-4%	1%	x	x	0%	u	x
CC(C)c1ccc(C(C(=O)NC2CCCCC2)N(C(=O)c2ccccn2)c2cccnc2)cc1 (stereo not drawn)
    u	x	3%	x	x	0%	-1%	u
CC(C)(C)NCC(O)(c1ccc(Cl)cc1)c1ccc(Cl)cc1
    3.2µM*	x	1%	x	x	3%	-24%	u
CN1CCCC(OC(=O)c2cccc(Br)c2)C1 (stereo not drawn)
    -2%	13%	5%	x	x	-4%	0%	10%
C/C(=N\NC(=O)c1cc(C)oc1C)c1ccc2ccccc2c1
    u	3%	7%	x	x	-1%	26%	-30%
CC1=C/C(=N\NC(=O)c2ccccc2)CC1
    11%	1%	5%	5%	1.1%	4%	0%	u
c1ccc(-c2nc(NCc3cccnc3)c3ccccc3n2)cc1
    u	-49%	-7%	2%	-1.5%	-21%	0%	-1%
Cc1cc(NC(=O)c2ccco2)c(=O)n(Cc2cccc(C(F)(F)F)c2)c1
    u	14%	-4%	x	x	-3%	8%	-19%[46.1 µM]
Cc1ccc(/C=C2\C(=O)NC(=S)N(c3cccc(F)c3)C2=O)o1
    x	u	-5%	x	x	u	u	x
Cc1ccc(C)c(S(=O)(=O)N2CCCC2CNC(=O)C(=O)NCc2cccs2)c1 (stereo not drawn)
    -21%[46.1 µM]	x	4%	x	x	5%	-18%	3%
COc1ccc(-n2c(Cc3cccn3C)nnc2SCC(=O)Nc2nc(C)cs2)cc1
    -8%	-1%	u	-6%	0.2%	-6%	-21%	-15%
CCCNC(=O)Cn1nc(-c2ccc(C)cc2)c2cnc3ccc(CC)cc3c21
    x	x	x	-9%	0.2%	x	13%	u
COc1ccc(CC(=O)N2CC(=O)N(CCc3ccccc3)C(=O)C2)cc1
    12%	3%	-3%	-11%	-0.6%	5%	1%	-2%
CCOC(=O)c1[nH]c(C)c(C(=O)Nc2cc(OC)ccc2OC)c1C
    u	-4%	6%	15%	1.5%	-5%	13%	u
CCCc1cc(=O)oc2c(CN3CCOCC3)c(O)ccc12
    9%	6%	-6%	u	u	2%	u	-1%
COc1ccc(NC(=O)c2ccc(Br)o2)cc1
    8%	13%	-21%	-16%&-6%	-0.7%&-0.3%	-5%	40%[activator]	u
CSCC[C@H](N)C(=O)N1CCC(C(=O)N[C@@H](Cc2c[nH]c3ccccc23)C(=O)O)CC1
    0%	0%	12%	x	x	0%	-17%	x
Cc1ccc(C(=O)NNC(=O)CSc2n[nH]c(-c3cccnc3)n2)cc1
    4%[46.1 µM]	8%	2%	x	x	-2%	-10%	2%
COC(=O)c1cccc(NC(=O)c2ccco2)c1
    18%	-16%	-2%	-14%	-1.2%	-26%	34%[activator]	0%
O=C(CN1CCCCCC1)N1c2ccccc2Sc2ccc(C(F)(F)F)cc21
    18µM*	1%	0%	-11%	-2.3%	-5%	x	12%
Cc1ccc(N(CCC(=O)O)S(=O)(=O)c2ccccc2)cc1
    u	5%	14%	0%	1.2%	-8%	-11%	1%
Cc1cc(Cl)ccc1NC(=S)NCc1ccccc1Cl
    -17%	9%	-12%	-9%	-8.3%	57%	17%	-6%
O=S(=O)(Nc1ccc(F)cc1)c1cccc2nsnc12
    -11%	-2%	-1%	x	x	u	38%[activator]	u
COc1ccc(S(=O)(=O)N2CCC(N3CCN(c4ccccc4OC)CC3)CC2)cc1
    7%[46.1 µM]	-3%	2%	x	x	1%	-22%	1%
CCc1ccccc1Nc1cc(C(=O)NCc2ccccn2)c2ccccc2n1
    u	x	-8%	x	x	1%	10%	-13%
O=C(Nc1nc(-c2ccccc2)cs1)C1CCCCN1S(=O)(=O)c1ccc(Cl)cc1 (stereo not drawn)
    u	-17%	-2%	u	-2.9%	11%	u	u
O=C(CNC(=O)c1ccc2c(=O)n3c(nc2c1)CCC3)Nc1ccc(F)c(F)c1
    u	x	-12%	x	x	9%	-11%	-1%
COCC1CCCCN1C(=O)CCCn1nnnc1CN1CCC(C)CC1 (stereo not drawn)
    u	6%	-10%	x	x	-1%	-6%	9%
Cc1ccccc1NC(=O)Cn1c(=O)n(CCC(=O)NCc2ccc3c(c2)OCO3)c(=O)c2sccc21
    26%[46.1 µM]	x	x	-9%	-3.4%	x	19%	-3%[46.1 µM]
C=CCN=c1scc(-c2ccco2)n1/N=C/c1ccc(O)c(O)c1O
    6%[46.1 µM]	15%	-19%	x	x	0%	u	-22%
CCOC(=O)C1=C(O)/C(=C\c2ccc(CNC(=O)C(=O)Nc3ccc(C)c(C)c3)o2)N=C1C
    x	5%	x	29%	-4.0%	18%	x	x
Cc1ccc(-n2nc3c(c2NC(=O)C2CC2)CS(=O)(=O)C3)cc1
    23%[46.1 µM]	2%	1%	x	x	8%	4%	6%[46.1 µM]
O=C(CN1C(=O)C(=O)c2ccccc21)c1ccc(Cl)cc1
    x	13%	0%	x	x	0%	5%	x
CN(C)c1ccc(C2Nc3ccccc3C(=O)N2CCN2CCNC2=O)cc1 (stereo not drawn)
    4%	-2%	20%	x	x	0%	18%	0%
Cc1c(C(=O)N(C)c2ccccc2Cl)cnn1-c1ccccc1
    20%[46.1 µM]	28%	7%	x	x	-1%	-6%	-16%[46.1 µM]
CCCCNc1c(C(=O)OCC)c(=O)[nH]c2ccccc12
    -6%	-7%	-7%	-14%	-2.6%	-6%	-8%	-3%
CC(C)C1=CC(=NS(=O)(=O)c2cccc([N+](=O)[O-])c2)C=C(C(C)C)C1=O
    -13%[46.1 µM]	-2%	-10%	-20%	-1.6%	1%	-4%	1%
O=c1c(N2CCc3ccccc3C2)csc2ccc(Br)cc12
    x	x	x	-7%	-7.8%	x	-10%	2%[46.1 µM]
COc1ccc2nc(NC(=O)c3cccc(-c4cc5ccccc5oc4=O)c3)sc2c1
    u	9%	0%	-7%	-10.0%	8%	-17%	u
Cc1ccc(CNC(=O)COC(=O)[C@@H]2CC(O)CN2S(=O)(=O)c2ccc3c(c2)OCCO3)cc1 (stereo partly drawn)
    10%	7%	-18%	u	-3.5%	12%	-15%	-20%
CCCc1c(C(=O)N/N=C/c2cccnc2)nnn1-c1nonc1N
    10%[46.1 µM]	-2%	-3%	x	x	-1%	-7%	21%[46.1 µM]

# High-throughput results deposited in PubChem BioAssay by National Center for Advancing Translational Sciences (NCATS).
